Rce1 inhib: yeast Rce1p protease inhibitors, primary screen, biochemical, fluorescence, cell-free homogeneous. CAAX prenyl protease 2 (Saccharomyces cerevisiae (strain ATCC 204508 / S288c)), Q03530. yeast membranes, quenched prenylated peptide cleavage fluorescence. calls only. 290,000 compounds, 0.27% hits. AID 2563, 2010;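 active means fall in fluorescence gain of 50% or more versus controls, with final raw signal at or below 3038400; inconclusive means same 50% fall but final raw signal above 3038400; inactive means fall in fluorescence gain under 50%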;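 further: plate controls were neutral control wells for no effect and wells lacking membranes for full effect; tested at 10 µM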
CSC inhib: cancer stem cell viability inhibitors, primary screen, luminescence | cancer stem cell-like cells viability | AID 2717, 2010 | 300,000 compounds, 1.1% hits | inhibition, % at 7.5 µM;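 active means mean at 75% or more and at least half the replicates too; inconclusive means mean and replicates disagree; tested in HMLE shEcad cells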;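 further: 0% = median of negative and 100% = median of positive control wells; the first replicate is given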
PABP FP inh: PABP poly(A) RNA binding inhibitors, primary screen, biochemical, fluorescence polarization, uHTS; AID 2014, 2009; 290,000 compounds, 1% hits; inhibition, % at 35 µM;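 active means 50% or more with normal probe brightness, or confirmed in later tests; inconclusive means above 50% with abnormal brightness, or retests that disagree; inactive means below 50% or failed in later tests; about a fifth of its hits are not listed in these tables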;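 further: calls also rest on retests at 20 µM and on dose response follow-up; controls were probe without protein and protein plus probe with vehicle; some compounds called inactive have numbers as strong as hits; many hits fall short of the cut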
Target sequence (P11940 whole entry, looked up): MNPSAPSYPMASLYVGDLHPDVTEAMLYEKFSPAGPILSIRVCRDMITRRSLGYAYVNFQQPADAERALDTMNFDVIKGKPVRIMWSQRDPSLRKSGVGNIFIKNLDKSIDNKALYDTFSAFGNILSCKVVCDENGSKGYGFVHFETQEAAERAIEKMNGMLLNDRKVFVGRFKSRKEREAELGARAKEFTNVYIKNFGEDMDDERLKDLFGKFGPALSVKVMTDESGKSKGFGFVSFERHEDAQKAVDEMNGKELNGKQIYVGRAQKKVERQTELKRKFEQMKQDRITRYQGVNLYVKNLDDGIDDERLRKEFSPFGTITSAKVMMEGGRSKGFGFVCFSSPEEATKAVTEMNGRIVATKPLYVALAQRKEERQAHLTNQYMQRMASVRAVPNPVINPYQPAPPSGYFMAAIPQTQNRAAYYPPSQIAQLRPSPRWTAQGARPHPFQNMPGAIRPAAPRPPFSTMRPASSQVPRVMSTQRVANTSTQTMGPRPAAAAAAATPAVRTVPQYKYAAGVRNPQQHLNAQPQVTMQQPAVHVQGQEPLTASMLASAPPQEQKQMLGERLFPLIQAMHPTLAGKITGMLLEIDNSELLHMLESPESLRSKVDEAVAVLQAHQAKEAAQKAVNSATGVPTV
Env fusion inh: inhibitors of HIV-1 Env-driven cell-cell fusion, primary screen, HeLa-JRFL effector, CEM21 target cells, luciferase | 360,000 compounds, 1.1% hits | inhibition, % at 12.3 µM;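 active means mean replicate inhibition score of at least 50 and every replicate individually at or above 50; inconclusive means only one of the two criteria met; inactive means mean below 50 and not all replicates reaching 50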;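 further: 0% = plate neutral controls and 100% = maraviroc near 300 nM; one replicate is shown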
MT1-MMP act inh: blockers of MT1-MMP proenzyme processing, primary screen, HT1080 RFP-PRO-GFP cells, GFP/RFP fluorescence; GFP/RFP ratio change, % at 20 µM; AID 651647, 2012; Matrix metalloproteinase-14 (Homo sapiens), P50281; 360,000 compounds, 0.061% hits; GFP/RFP ratio fluorescence, overnight; percent of plate control window, DMSO zero;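 active means GFP/RFP ratio change of at least 30% with cell ATP level not reduced by more than half and red fluorescence within 50% of control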; further: strong numbers were not always called active
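Read-out: GFP/RFP fluorescence ratio; Test system: RFP-PRO-GFP reporter HT1080 cells; Compound dosing: single-point 20 µM compound, 1% DMSO; Times: overnight compound exposure at 37 °C.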
eIF4H FP inh: human eIF4H binding inhibitors, primary screen, translation initiation inhibitor project, biochemical, uHTS, fluorescence polarization; Eukaryotic translation initiation factor 4H (Homo sapiens), Q15056; eIF4H fluorescence polarization binding assay; inhibition, % at 35 µM; 290,000 compounds, 0.94% hits;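 active means 50% or more with normal probe brightness, or confirmed in later tests; inconclusive means above 50% with abnormal brightness, or retests that disagree; inactive means below 50% or failed in later tests; about a fifth of its hits are not listed in these tables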;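 further: calls also rest on retests at 20 µM and on dose response follow-up; 0% = protein and probe with vehicle and 100% = probe without protein; strong numbers were not always called active; many hits fall short of the cut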
Yeast UUG start: modulators of yeast start codon fidelity, primary screen, whole organism, S. cerevisiae, single point, plate reader | S. cerevisiae UUG-firefly luciferase reporter, luminescence/redox ratio | activity score, % at 18.7 µM | 350,000 compounds, 0.13% hits;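 active means replicate mean at a twofold rise or more, about +100% in these data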;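 further: firefly luciferase made from a UUG start codon reports start codon fidelity; reporter light over untreated wells divided by growth signal over untreated wells; some hits fall short of that in this replicate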
eIF4H FP inh retest: recorded beside eIF4H FP inh, whose call it bears; inhibition, %; compound at 20 µM; confirmation average;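 mean of two retest wells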
PABP FP inh retest: also measured in PABP FP inh; calls as there; inhibition, %; compound at 20 µM; confirmation repeats;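 mean of two retest wells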
MT1-MMP act inh RFP: also measured in MT1-MMP act inh; calls as there; RFP signal change, %; measured here: RFP expression control read;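 0 = vehicle wells; hits needed this value within 50% of zero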
* hit, by the source's call; i = inactive; ? = inconclusive; . = no result given.

SMILES	Rce1 inhib	CSC inhib	PABP FP inh	Env fusion inh	MT1-MMP act inh	MT1-MMP act inh RFP	eIF4H FP inh	Yeast UUG start	others
COc1ccc(C(=O)NC(=S)NNC(=O)c2ccc3ccccc3n2)cc1	.	1	-2	14	10	-1	6	-19
CCc1cccc(NC(=O)c2ccc(Cn3nc(C)cc3C)o2)c1	i	-8	-9	?	0	-5	0	.
Cc1nc(C)c(-c2csc(NCc3ccco3)n2)s1	i	-2	10	.	3	-5	-9	-10
COC(=O)c1ccccc1NC(=O)CCn1c(=O)oc2ccccc21	i	-19	8	8	-2	2	6	-8
COc1ccc(-c2nn(-c3ccccc3)cc2C(=O)NCCCn2ccnc2)cc1	i	-12	-2	20	2	-3	5	-23
Cc1ccc2nc(N(CCN(C)C)C(=O)C3CCN(S(=O)(=O)c4cccs4)CC3)sc2c1	.	.	.	2	4	6	.	13
O=C(COc1ccc2ccccc2c1)N1c2ccccc2Sc2ccccc21	i	.	-2	15	10	2	-5	.
Cc1[nH]c(=S)sc1Cc1ccc(Cl)c(Cl)c1	i	7	3	-6	.	.	-5	.
O=C(COC(=O)c1ccccc1)Nc1cccc(S(=O)(=O)N2CCOCC2)c1	i	-9	-4	2	2	4	-1	-18
O=S(=O)(NCC1OCCc2ccccc21)c1ccc(S(=O)(=O)N2CCOCC2)cc1 (stereo not given)	i	8	5	.	6	-2	-3	12
CCOc1ccccc1NC(=O)CCNS(=O)(=O)c1ccc2[nH]c(=O)oc2c1	i	-4	7	0	0	1	19	-19
Cc1cc(C)nc(NS(=O)(=O)c2ccc(NC(=O)CSc3nc4ccccc4[nH]3)cc2)n1	i	6	115	15	3	3	1	-8	eIF4H FP inh retest=18;PABP FP inh retest=24
O=C(O)C1CCCCC1C(=O)Nc1ccc(Cl)cc1 (stereo not given)	i	4	-1	.	3	5	-2	.
CCn1c(C(=O)Nc2ccsc2C(=O)OC)cc2sc(Cl)cc21	i	1	2	1	0	4	-1	-9
COc1ccc(-n2c(/C=C3\C(=O)N(C)c4ccccc43)nc3ccccc3c2=O)cc1	i	9	5	-18	-6	-12	-4	.
O=C(Nc1cccc(Oc2ccccc2)c1)C1Cc2c(-c3ccc4c(c3)OCO4)ccnc2O1 (stereo not given)	.	.	.	3	-1	-16	.	-8
CN(Cc1cnn(C)c1)C(=O)C1CCC(=O)N(Cc2cccc(C(F)(F)F)c2)C1 (stereo not given)	i	-1	-14	-2	-1	2	-1	-13
O=C(Cn1nc(-c2ccco2)ccc1=O)Nc1ccc(Cl)c(Cl)c1	i	.	8	3	5	4	10	-16
C=CCN(c1ccc(C(=O)Nc2ccc3c(c2)n(C)c(=O)n3C)cc1)S(C)(=O)=O	i	-5	16	0	8	5	13	-14
COc1ccc(NC(=O)NC2CCCCC2C)cc1 (stereo not given)	i	-17	11	3	-2	1	-6	.
O=C(CS(=O)(=O)c1ccc(F)cc1)Nc1nccs1	i	-3	.	-1	-3	1	.	.
O=C(CCc1nc2ccccc2c(=O)[nH]1)OCCOc1ccc(Cl)cc1	i	-8	-3	1	3	5	4	8
S=c1[nH]nc(COc2ccccc2)n1/N=C/c1cccs1	i	0	-8	-8	3	3	1	-7
COc1ccc(CNCCC(c2ccc(OC(C)C)cc2)c2ccccc2OC)cc1OC (stereo not given)	i	21	4	46	-8	-6	-3	3
Cc1ccc(S(=O)(=O)/C(C#N)=C/c2c(N3CCN(Cc4ccccc4)CC3)nc3ccccn3c2=O)cc1	i	-2	43*	-9	-1	-4	?	6	PABP FP inh retest=112*
Cc1ccc(S(=O)(=O)N2CCOCC2)cc1C(=O)N1CCN(S(=O)(=O)c2cccc(F)c2)CC1	.	5	.	.	-1	-4	.	9
CCOC(=O)c1c(NC(=O)COC(=O)CCOc2ccc(C)cc2)sc(C(=O)N(C)C)c1C	i	-9	.	-6	-2	2	.	-11
COc1ccc(NC(=O)COC(=O)C2CCN(S(=O)(=O)c3cccs3)CC2)cc1	i	-14	-2	-11	3	2	15	.
COc1ccccc1N1C(=O)CC(Sc2nc(C)cc(C)n2)C1=O (stereo not given)	i	-24	-7	13	2	0	7	-10
COc1cc(NC(=O)C(C)C)ccc1NC(=O)c1ccco1	i	-5	0	.	8	3	-3	-20
O=C(CSc1ccc(-c2ccc(Br)cc2)nn1)NC1CCCC1	i	-2	-10	-3	3	-2	4	-14
CCN1CCN(Cc2ccc(NC(=O)Nc3ccccc3Cl)cc2)CC1	i	24	-22	-23	5	9	-6	-30
c1ccc(N=Nc2ccc3cccccc2-3)cc1	i	15	.	-56	6	-3	.	-28
CCNC(=O)NC(=O)C(C)OC(=O)C1CCN(S(=O)(=O)c2ccc(C)c(C)c2)CC1 (stereo not given)	i	-4	0	14	2	5	-16	.
CC1(C(=O)NCc2ccccc2Br)CCN1C(=O)CCc1ccc(Cl)cc1Cl (stereo not given)	.	.	.	-102	0	-5	.	3
COc1ccc(C(=O)Nc2ccccc2-c2nnn(CC(=O)NCc3ccco3)n2)cc1	i	-13	2	.	6	2	-2	-9
CC(=O)Nc1cc(C(=O)N2CCc3ccccc3C2)ccc1Sc1ccc(C)cc1	i	16	-4	11	4	-1	1	.
O=C1C(c2ccccc2)C(c2ccccc2)NC(c2ccccc2)C1c1ccccc1 (stereo not given)	i	49	3	-149	0	-4	-13	-8
CCOC(=O)C/C(C)=N/NC(=O)CN(c1ccc(Br)cc1)S(=O)(=O)c1ccccc1	i	-10	17	.	2	-2	8	-9
CN1CCN(CCc2nc3cc(NC(=O)COc4ccc([N+](=O)[O-])cc4)ccc3n2C)CC1	i	-9	-3	-2	0	5	-1	-5
COc1ccc(/C=N/NC(=O)C[n+]2ccccc2)c(OC)c1OC	i	-20	9	9	3	5	-4	.
COc1ccc(-c2ccc(SCC(=O)NCc3ccco3)nn2)cc1OC	i	2	-4	-31	0	0	2	.
NS(=O)(=O)c1ccc(CCNC(=O)C2CCN(S(=O)(=O)c3cnc[nH]3)CC2)cc1	i	1	-8	.	-2	-2	-4	-8
CC(=O)Nc1cccc(NC(=O)c2oc3ccccc3c2C)c1	i	-1	-2	-152	.	.	12	.
Cc1nc2cc(NC(=O)c3ccc(S(=O)(=O)N(C)c4ccccc4)cc3)ccc2o1	i	30	-1	-14	2	-30	-3	-8
Cc1nonc1NC(=O)c1oc2ccccc2c1C	i	13	.	-34	0	-1	.	.
Cc1nn(C)c(C)c1C1C(C#N)=C(N)Oc2n[nH]c(C)c21 (stereo not given)	i	-7	6	4	11	2	1	-13
CC1Cc2ccccc2N1CC(=O)Nc1cc(S(=O)(=O)N2CCOCC2)ccc1Cl (stereo not given)	.	.	.	19	-3	-8	.	-18
CCOC(=O)C1=C(C)NC2=C(C(=O)c3ccccc32)C1c1cccc2ccccc12 (stereo not given)	i	24	-6	23	-1	-8	-6	10
COc1cccc(CNC(=O)CCCC(=O)NC(C)CCc2ccccc2)c1 (stereo not given)	i	-1	6	-7	2	8	0	-13
(more compounds)
SMILES	Rce1 inhib	CSC inhib	PABP FP inh	Env fusion inh	MT1-MMP act inh	MT1-MMP act inh RFP	eIF4H FP inh	Yeast UUG start	others
COc1ccccc1N1CCN(C(=O)C(NS(=O)(=O)c2cccs2)c2ccccc2)CC1 (stereo not given)	.	-10	-5	-8	-1	-3	3	-18
Cc1noc(NS(=O)(=O)c2ccc(NC(=O)CCN3C(=O)c4ccccc4C3=O)cc2)c1C	i	-4	2	8	2	6	0	.
O=C(CCNC(=O)N1CC(=O)Nc2ccccc21)Nc1ccc(F)c(Cl)c1	i	-13	2	-3	3	5	-1	17
O=C(O)CCCNC(=O)c1cncc(Br)c1	i	-10	-9	.	-1	1	-5	-32
O=C(O)COc1ccc2nsnc2c1Cl	i	-8	2	.	-2	0	31	-16
CCOc1ccc(S(=O)(=O)NC(=O)c2ccccc2)cc1	i	-6	1	-20	3	2	-19	-8
Cc1csc(NC(=O)CCC(=O)N(CC(=O)NC2CCCC2)Cc2ccco2)n1	i	-11	8	.	-3	0	1	-19
Clc1ccc(C2=NN=C3COc4ccccc4N3C2)cc1	i	-5	5	14	-6	-7	5	.
CCn1cc(C(=O)Nc2cc(C)ccc2C)c(=O)c2ccc(C)nc21	i	4	-10	.	.	.	6	.
O=C(CCCn1c(SCc2cccc([N+](=O)[O-])c2)nc2ccccc2c1=O)NCC1CCCO1 (stereo not given)	i	0	6	29	-3	2	0	-2
CCN(CC(=O)NCc1ccc(Cl)cc1)C(=O)/C=C/c1ccccc1	i	-12	6	9	2	5	3	14
O=C(CSCC(=O)Nc1ccccc1)N/N=C/c1c(O)ccc2ccccc12	i	58	-6	52	-6	-3	0	-27
COc1ccccc1NC(=O)Nc1nc(C(N)C2CCCCC2)cs1 (stereo not given)	.	.	.	11	-9	-4	.	6
O=C(CCCc1c[nH]c2ccccc12)N1CCN(c2ccc(N3CCOCC3)nn2)CC1	i	5	5	-8	4	-3	-3	-9
O=C(COC(=O)COc1ccc(Br)cc1)NCc1ccc2c(c1)OCO2	.	-4	.	-4	0	5	.	-18
CCOC(=O)c1c(=O)n(O)c2ccc(C)cc2[n+]1[O-]	i	0	125*	.	-3	5	104*	.
C=CCOc1ccc(/C=C/C(=O)OCC(=O)Nc2c(C)n(C)n(-c3ccccc3)c2=O)cc1	i	9	.	-5	3	2	.	.
S=C(N/N=C/c1cccs1)NC1CC2CCC1C2 (stereo not given)	i	10	-11	11	2	-6	13	-24
Cc1ccc(S(=O)(=O)N2CCCC2C(=O)Nc2nccs2)cc1 (stereo not given)	i	-19	0	.	1	5	2	-10
O=C(c1cccc(C(=O)N2CCc3ccccc32)n1)N1CCc2ccccc21	i	-2	-6	.	1	-4	-2	.
Cc1cc(C)c(C)c(S(=O)(=O)NCC(=O)NCc2ccco2)c1C	i	0	6	-33	2	3	-5	.
CC(C)c1ccc(S(=O)(=O)N2CCN(C(=O)CCNC(=O)Nc3ccccc3)CC2)cc1	.	.	.	8	-3	-2	.	10
NS(=O)(=O)c1ccc(CCNC(=O)CSc2nc3ccsc3c(=O)n2CCCCCC(=O)O)cc1	i	-12	2	-4	-1	0	-5	-8
O=C(NCC1CCCN(C(=O)c2cscn2)C1)c1ccc(-c2ccccc2)cc1 (stereo not given)	i	-8	1	-13	-2	-4	0	.

Screens as filed in PubChem BioAssay.

Only part of the results is shown (hit frequency here may not be typical).
